# Assay outcomes as filed in PubChem.
# WNV NS2B-NS3 inh = inhibitors of WNV NS2B-NS3 protease, primary screen, biochemical, fluorogenic substrate. Genome polyprotein (West Nile virus), P06935. fluorogenic substrate Ex360/Em465; active compounds read low. z-score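 (tested at a level between 10 and 100 µM)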. 65,000 compounds, 0.18% hits;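 active = z-score at -3 or under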;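 also: score is relative to mean and spread of the compound wells of a plate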
# Target sequence (P06935 1371-1501 limits assumed): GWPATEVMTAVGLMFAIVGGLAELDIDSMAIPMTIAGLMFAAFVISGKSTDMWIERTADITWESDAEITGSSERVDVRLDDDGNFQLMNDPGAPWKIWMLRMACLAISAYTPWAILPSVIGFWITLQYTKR
# Target sequence (P06935 1502-1679 limits assumed): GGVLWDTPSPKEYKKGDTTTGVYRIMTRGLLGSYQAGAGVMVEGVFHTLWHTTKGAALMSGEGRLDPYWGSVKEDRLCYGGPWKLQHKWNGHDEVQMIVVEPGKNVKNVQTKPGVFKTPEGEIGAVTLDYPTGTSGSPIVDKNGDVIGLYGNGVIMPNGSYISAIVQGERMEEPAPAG
# Hsc70 ATP site = Hsc70 inhibitors, probe displacement, primary screen, biochemical, fluorescence polarization (AID 568); Heat shock cognate 71 kDa protein (Homo sapiens); Hsc70 fluorescence polarization, probe displacement; higher % means a stronger effect; strong numbers were not always called active; 83,000 tested, under 10 active; displacement, % at 20 µM, or IC50 in µM where a hit was titrated;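 active = displacement above 50% without optical interference and an IC50 on retest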;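 also: ATPase domain with a fluorescein-tagged ATP probe; 0% = vehicle and 100% = excess ADP; read after one hour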
# MT1-MMP reporter = inhibitors of MT1-MMP promoter transcription, cell-based, luciferase reporter, luminescence (AID 618); calls from a first round at 10 µM; hits with a dose series show EC50 in µM; MT1-MMP promoter luciferase reporter cells, luminescence; 87,000 compounds, 0.62% hits;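 active = over half of the reporter light lost at 10 µM or EC50 under 50 µM; inactive = the rest and hits that failed the dose series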;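 also: actives suppress MT1-MMP promoter-driven transcription so potencies describe inhibitors; HT1080 fibrosarcoma cells; overnight exposure; toxic or luciferase-blocking compounds were not removed from the actives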
# * marks the source's active call; other numbers are inactive results; i = inactive; . = not tested or not shown; & = joins results of further samples.
Molecule | MT1-MMP reporter | WNV NS2B-NS3 inh | Hsc70 ATP site
O=c1oc2ccccc2n1CSC1=NCCS1 | i | -0.33 | 2.0%
O=C(CSc1nnc(-c2ccccc2)n1Cc1ccco1)Nc1ccc2c(c1)OCCO2 | i | 1.6 | -1.0%
COc1ccc(N2CCN(C(c3ccccc3)c3sc4nc(C)nn4c3O)CC2)cc1 (centres undefined) | i | -0.53 | 6.1%
Cc1cc(=O)oc2cc(OCCSCCN3CCOCC3)ccc12 | i | 0.69 | 2.7%
CCn1c(N)c(C(=O)N2CCOCC2)sc1=S | i | 0.02 | 1.2%
O=C1C(=O)N(CCCn2ccnc2)C(c2cccnc2)/C1=C(/O)c1ccc(Cl)cc1 (centres undefined) | i | -0.25 | 0.9%
O=C(CCC(=O)c1cccs1)Nc1ccccc1F | i | 0.25 | 2.4%
Cc1ccc(C(=O)Nc2nc3ccc(S(C)(=O)=O)cc3s2)o1 | i | . | -4.2%
O=S(=O)(O)c1nc2ccccc2n1Cc1ccccc1 | i | . | -1.2%
C=CCn1c(CCNC(=O)c2ccccc2F)nnc1SCC(=O)Nc1nc(C)cs1 | i | 1.2 | 3.1%
C=CCOc1cccc(C2/C(=C(/O)c3ccc(C)cc3)C(=O)C(=O)N2CCN2CCOCC2)c1 (centres undefined) | i | 1.1 | 1.7%
O=C(C1CC2CCC1C2)N1CCN(Cc2ccc3c(c2)OCO3)CC1 (centres undefined) | i | 0.61 | 1.2%
COCC(=O)Nc1ccccc1NC(C)=O | i | -0.11 | -9.1%
O=C1CC(C(=O)Nc2ccccc2)N=C(N2CCCCC2)N1 (centres undefined) | i | 1.3 | 0.1%
C(=N\n1cnnc1)/c1ccc(N2CCOCC2)cc1 | i | -0.62 | -2.7%
Cn1c(CSCc2ccccc2)nnc1SCC(=O)Nc1nccs1 | i | . | 0.6%
COc1cccc(Oc2ccc(N)cc2)c1 | i | -0.48 | 6.6%
O=S(=O)(Nc1cccc(C(F)(F)F)c1)c1cnc[nH]1 | i | 0.66 | 0.8%
Cc1nn(C(=O)C(C)N2C(=O)c3ccccc3C2=O)c(C)c1Br (centres undefined) | i | 0.06 | -0.4%
Cn1c(C(=O)NCCCN2CCN(c3ccccc3F)CC2)cc2c(=O)n(C)c3ccccc3c21 | i | 0.49 | 1.0%
CCC(CC)C(=O)Nc1cccc(C(=O)Nc2ccc3c(c2)OCO3)c1 | i | -0.23 | -1.6%
CCOC(=O)CSc1nccc(N(C)C)c1C#N | i | 2.1 | -3.5%
O=C(Nc1cccc(Cl)c1)Nc1ccc(Cl)cn1 | i | . | 3.6%
CCn1cnc2sc(-c3ccccc3)cc2c1=O | i | 2.9 | 4.1%
COC(=O)c1cc(Br)c(=O)n(CCC2=CCCCC2)c1 | i | 0.42 | 7.5%
COc1ccc(CC(=O)N2CCCc3ccccc32)cc1OC | i | -0.46 | -4.5%
CC(=O)Nc1cc(C(F)(F)F)ccc1N1CCOCC1 | i | 1.7 | 0.6%
COc1ccccc1N1CCN(CC(O)c2ccc3cc[nH]c3c2)CC1 (centres undefined) | i | -0.51 | 2.6%
COc1ccc2c(c1)-c1ccccc1S(=O)(=O)N2C(C)=O | i | -0.5 | -2.6%
CC(C)CCOc1ccc(C(=O)O)cc1 | i | -0.47 | 0.0%
COC(=O)C1CCCN1C(=O)C1CCCN1C(=O)CNC(=O)OCc1ccccc1 (centres undefined) | i | -1.2 | 4.7%
COC(=O)CN(c1c(C)cccc1C)S(C)(=O)=O | i | -0.49 | 5.7%
O=C(CSc1nnnn1-c1ccc2c(c1)OCO2)NCc1ccccc1 | i | -0.11 | -5.0%
CCOC(=O)c1[nH]c2ccc(OC)cc2c1C | i | 0.24 | 2.6%
CC(=O)Nc1ccc(S(=O)(=O)N2CCCCC2c2cccnc2)cc1 (centres undefined) | i | -0.24 | -4.3%
C/C(=N\O)C(=O)NCCCNCCCN(C)C | i | 0.07 | 4.0%
Cc1ccc2nc(-c3ccccn3)oc2c1 | i | -1.1 | 7.6%
CC(=O)Nc1ccc(NC(=O)c2oc3cc(C)c(C)cc3c2C)cc1 | i | 0.02 | 0.7%
Cc1cccc(C(=O)Nc2sc(C(=O)N3CCCC3)c(C)c2C#N)c1 | i | . | 0.4%
CCN(CC)C(=O)CSc1nc2ncccc2[nH]1 | i | -0.35 | -10%
Cc1c(NC(=O)c2cnn3cccnc23)c(=O)n(-c2ccccc2)n1C | i | -0.78 | -2.3%
Cc1nc2ccccc2c(=O)n1NC(=O)COc1ccccc1 | i | 1.4 | -2.7%
CCOC(=O)C1CCCN(C(=O)Cc2c(C(=O)O)[nH]c3ccccc23)C1 (centres undefined) | i | -0.58 | 3.0%
Cc1nnc(NCCN2CCOCC2)[nH]c1=O | i | -0.53 | 1.6%
Cc1cc2n(n1)C(c1ccsc1)Nc1ccccc1-2 (centres undefined) | i | 0.27 | 8.0%
CCCCOc1ccc(/C=c2\sc3ncnn3c2=O)cc1 | i | -0.43 | -3.6%
COc1cc(Cl)c(S(=O)(=O)NCCCN2CCOCC2)cc1Cl | i | -0.53 | 0.1%
CCOC(=O)c1c(C)[nH]c(C(=O)OCC(=O)N2c3ccccc3CC2C)c1C (centres undefined) | i | -0.68 | -1.5%
O=C(O)C1C2C=CC(C2)C1C(=O)NC(c1ccccc1)c1ccccc1 (centres undefined) | i | . | 4.5%
O=C(CSc1nnc(-c2ccco2)n1Cc1ccccc1)c1ccccc1 | i | -1 | -2.3%

# Next part:
Molecule | MT1-MMP reporter | WNV NS2B-NS3 inh | Hsc70 ATP site
COC(=O)c1ccc(NC(=O)CSc2nnc(CNc3ccc(F)cc3)n2C)cc1 | i | 0.83 | -2.8%
COc1nc(Oc2ccc(C(=O)O)cc2)nc(Oc2ccc(C(=O)O)cc2)n1 | i | . | -1.1%
CCOC(=O)CNC(=O)CSc1nnc(-c2ccco2)n1N | i | -0.42 | -3.0%
CCOC(=O)c1ccc(S(=O)(=O)N2CCN(CCC#N)CC2)cc1 | i | -0.59 | 2.6%
Cc1ccc2oc(C(=O)NCc3ccc4c(c3)OCO4)c(C)c2c1 | i | 0.84 | 7.1%
CCOc1ccc(C(C)C)cc1S(=O)(=O)Nc1ccc(Cl)cn1 | i | 0.43 | 2.8%
CCSc1ncccc1-c1nc2ccccc2[nH]1 | i | . | 2.3%
CCN(CC)C(=O)C1CCN(S(=O)(=O)c2ccc3oc4ccccc4c3c2)CC1 | i | -0.55 | 7.6%
COCc1cc(=O)[nH]c(Nc2nc3ccccc3o2)n1 | i | 1.9 | -3.7%
CCC(=O)N1CCN(c2nc3ccccc3s2)CC1 | i | . | -3.2%
COc1ccc(S(=O)(=O)N(C)CC(=O)Nc2ccccc2OC)cc1C | i | -0.79 | 7.8%
CCN=c1sc(C(=O)NCCc2ccccc2)cc(=O)n1CC | i | -0.94 | 2.7%
CN(C)c1ccc(C(=S)NCc2ccco2)cc1 | i | -1.3 | -5.3%
Cc1cccc(-c2c3c(=O)n(C)c(=O)n(C)c3cn2-c2ccccc2O)c1 | i | 0.18 | 1.9%
c1ccc(Nc2nc(N3CCCCC3)nc(N3CCNCC3)n2)cc1 | i | -0.49 | 10%
CCN(CC)CCn1c(SCC(=O)NCc2ccco2)nc2c(sc3ccccc32)c1=O | i | -0.08 | -2.6%
CC(NC(=O)C1CCCCC1)C(c1cccs1)N1CCOCC1 (centres undefined) | i | -0.91 | -3.7%
Cn1cccc1Cc1nnc(SCC(=O)N2CCCC2)n1CCc1ccccc1 | i | -0.35 | 9.7%
O=C(NCCSc1ccc(Cl)cc1)c1ccco1 | i | . | 2.1%
COc1ccc(NC(=O)c2cncc(Br)c2)c(S(=O)(=O)N2CCOCC2)c1 | i | 0.35 | 2.1%
O=C1CCC(=O)N1CN(C(=O)c1ccco1)c1ccccc1 | i | 0.45 | 1.0%
CC(C)C(=O)Nc1ccc(Nc2ccccc2)cc1 | i | -0.56 | -2.4%
CC(C)COc1ccc(C(=O)NCc2ccco2)cc1 | i | 0.1 | -14%
O=C1CC(NCc2ccc3c(c2)OCO3)C(=O)N1CCc1ccccc1 (centres undefined) | i | -1.1 | -8.0%
CC(C)(C)c1cc(NCCCn2ccnc2)n2ncc(-c3ccc(Cl)cc3)c2n1 | i | . | 7.2%
CN(C)c1ccc(C2=NOC(CN3C(=O)c4ccccc4S3(=O)=O)C2)cc1 (centres undefined) | i | 1.3 | -2.6%
COc1cccc(OCCn2ccnc2)c1 | i | 0.03 | -0.4%
O=c1oc(-c2cccs2)nc2ccccc12 | i | . | -0.5%
O=C(O)Cn1cc(C(=O)C2CC2)c2ccccc21 | i | 0.03 | -1.7%
CC1(C)Oc2ccc(C(=O)NC3CC3)cc2N(CC(=O)N2CCOCC2)C1=O | i | 0.45 | -2.3%
CC1(C)C(=O)Nc2ccccc2N1C(=O)COC(=O)Cn1cnc2ccccc2c1=O | i | 0.28 | -1.7%
O=C(Cc1c(F)cccc1Cl)Nc1ccon1 | i | -0.89 | 2.7%
COc1cc(NC(=O)c2ccccc2)c(OC)cc1NC(=O)CN1CCCCC1 | i | . | 0.3%
Cc1cc(C)nc(NC(=O)CN2C(=O)c3ccccc3C2=O)n1 | i | -0.41 | 3.9%
Cc1ccc(-c2csc3nnc(SCC(=O)Nc4nsc(-c5ccccc5)n4)n23)cc1 | i | 0.88 | -6.4%
CC(=O)N1CCN(C(=S)c2ccc(N(C)C)cc2)CC1 | i | -0.35 | -2.5%
COc1ccc(S(=O)(=O)Nc2ccc3c(c2)OCO3)cc1OC | i | 0.27 | 0.5%
CSc1nc(-c2ccccc2)nc2[nH]ccc(=O)c12 | i | -0.2 | -9.6%
C#CC(C)(C)NC(=O)c1ccccc1OC | i | 0.11 | -4.2%
COc1ccc(S(=O)(=O)N(C)CC(=O)NC2CCCC2)cc1Cl | i | 1 | 2.8%

# Whole records, looked up by structure. Order of screens: MT1-MMP reporter	WNV NS2B-NS3 inh	Hsc70 ATP site
# COc1ccc(S(=O)(=O)N(C)CC(=O)NC2CCCC2)cc1Cl is listed as i	1	2.8%
# O=C(Cc1c(F)cccc1Cl)Nc1ccon1 is listed as i	-0.89	2.7%

# New compounds follow
Molecule | MT1-MMP reporter | WNV NS2B-NS3 inh | Hsc70 ATP site
CN1CCCc2cc3c(C(F)(F)F)cc(=O)oc3nc21 | i | 1.1 | 114%
Cc1ccc(OCC(=O)Nc2cc(-c3nn4c(C)nnc4s3)ccc2C)cc1 | i | 0.07 | 4.5%
OC(COc1cccc(OCC(O)CN2CCOCC2)c1)CN1CCOCC1 (centres undefined) | i | -0.21&-0.25 | -3.3%&0.8%
CCOCCn1c(CN(C)Cc2ccccc2)nc2c1c(=O)n(C)c(=O)n2C | i | -0.17 | 4.3%
Cc1cc(NC(=O)CSc2ccc3ccccc3c2)no1 | i | . | -1.1%
CC(=O)Cc1nsc(NC(=O)c2ccc(COc3ccccc3)o2)n1 | i | 0.28 | -8.4%
Cc1[nH]nc2c1C(CCc1ccccc1)C(C#N)=C(N)O2 (centres undefined) | i | 0.5 | -0.7%
O=C(NCc1cccnc1)C1CC(=O)N(c2ccc(Cl)cc2)C1 (centres undefined) | i | 1 | 3.2%
O=C(Nc1ccc(S(=O)(=O)Nc2ccccc2)cc1)C1COc2ccccc2O1 (centres undefined) | i | . | 0.7%
Cn1c(NCc2ccco2)nc2c1c(=O)n(Cc1ccc(Cl)cc1Cl)c(=O)n2C | i | 0.65 | 2.7%
Cc1cc2ccccc2n1CCNC(=O)C(C)C | i | -0.57 | 0.0%
CCOc1ccc2nc(Nc3nc(CSc4nnnn4-c4ccccc4)cc(=O)[nH]3)nc(C)c2c1 | i | . | -1.3%
COc1ccc(-c2c3c(=O)n(C)c(=O)n(C)c3cn2C2CCCCC2)cc1 | i | -2.5 | 2.1%
Cn1c(=O)c(=O)n(C)c2cc(S(=O)(=O)NCCc3ccccc3)ccc21 | i | 1.2 | -1.6%
Oc1ccc(-c2nc3cnccn3c2Nc2ccc3c(c2)OCCO3)cc1 | i | -0.91 | 7.3%
COc1ccc(OC)c(CN2CCN(C(=O)c3cccs3)CC2)c1 | i | -0.46 | -0.4%
Cc1ccc(OCC(O)CN2CCN(Cc3ccc4c(c3)OCO4)CC2)c(C)c1 (centres undefined) | i | -1.6 | -3.6%
CSCCC(NC(=O)c1cc(CC(C)C)oc1C)C(=O)O (centres undefined) | i | -0.42 | -3.8%
Nc1c(C(=O)N2CCOCC2)sc(=S)n1-c1ccccc1 | i | 0.28 | 2.2%
CNc1nc(Oc2ccc(C(=O)OC)cc2)nc(SC)n1 | i | . | 3.4%
OCCSc1nncn1/N=C/c1c[nH]c2ccccc12 | i | 0.18 | -3.0%
CC1=NN(c2ccccc2)C(=O)/C1=C\c1c(C)[nH]n(-c2ccccc2)c1=O | i | . | -1.8%
COc1cc(NC(=O)C2CCCCC2)c2ncccc2c1 | i | . | -0.7%
COc1ccccc1NC(=O)N1CCc2[nH]c3ccc(Cl)cc3c2C1 | i | 1.8 | 4.6%
Cc1ccc(C)c(/C(O)=C2\C(=O)C(=O)N(CCCN3CCOCC3)C2c2cccnc2)c1 (centres undefined) | i | -1 | -0.3%
CCC(Sc1nccn1C)C(=O)Nc1nnc(C)s1 (centres undefined) | i | 0.6 | 4.4%
CCc1ccccc1NC(=O)N[C@@H](C)C(=O)O | i | 0.96 | 4.3%
CCCCOc1ccc2c(C)cc(=O)oc2c1OCCCC | i | . | -5.7%
O=C(Nc1ccc2oc(=O)ccc2c1)c1cc2ccccc2o1 | i | . | -1.5%
